# miR-21 reporter = raises the signal of a miR-21 reporter | 340,000 tested, under 10 active | AID 2288 | Potency, µM (series often up to 38.3 µM), without a hit: top-dose reporter change, positive = more light | HeLa miR-21 FLuc reporter, luciferase, 48 h; active = well fitted rising curve with a large enough effect; inconclusive = small, poorly fitted or top-dose-only effect; inactive = no such curve, though single readings can be large or run the other way;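 also: % of control where 0% means no effect; miR-21 action dims this reporter so a rising signal means less miR-21 action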
#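 HeLa miR-21-FLuc reporter line, endogenous miR-21; 2000 cells/well in DMEM/10% FBS; compound titration up to ~40uM final, 48 h, 37 degree Celsius; luciferase detection reagent, 15 min lysis, CCD luminescence.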
# An asterisk follows results filed as active; ? = inconclusive; [ ] = dose if it differs, or a comment. Only part of the results is shown; count on the stated rates, not on these rows.
SMILES,miR-21 reporter
Cc1oc2ccc(O)c(CN3CCN(C)CC3)c2c1C(=O)Nc1ccccc1,-0.6%
COc1ccc(NC(=O)CNC(=O)Cn2ccc3ccccc3c2=O)cc1OC,-5.3%
CCCCN(C)C(=O)CN1C(=O)c2cccnc2Oc2ccc(Cl)cc21,0.1%
COc1cccc(CNC(=O)c2cc3c(=O)n(Cc4cccnc4)ccc3nc2C)c1,27.2%
CCOc1ccc(CNC(=O)CN2C(=O)CCn3nc(-c4cn(C)c5ccccc45)cc32)cc1OC,-7.3%
COc1ccc(CCNc2ncnc3c2cnn3-c2ccc(F)cc2)cc1,-13.1%
COc1cccc(C(=O)NC(c2ccc(Cl)cc2)c2cc(Cl)c3cccnc3c2O)c1 (stereo unspecified),21.5%
Cc1noc2ncnc(N3CCCC(C(=O)Nc4cc(F)ccc4F)C3)c12 (stereo unspecified),15.7%
COc1ccc(Cn2c(SCc3ccc(C(=O)NC4CCCCC4)cc3)nc3cccnc32)cc1,2.0%
COc1cc(/C=C(\C#N)c2nc3ccc(C)cc3[nH]2)ccc1OCc1ccc(C)cc1,-45.3%
CCOc1sc2nc(C)n(CC(=O)Nc3cccc(C)c3)c(=O)c2c1C,5.4%
COc1ccc(NC(=O)c2sc3nc[nH]c(=O)c3c2C)cc1Cl,-53.6%
CCn1c(SC)nc2c([nH]c3ccccc32)c1=O,-0.2%
COc1ccccc1Nc1nn2c(=O)c3ccc(C(=O)NCCc4ccccc4)cc3nc2s1,?
CCn1c(C(=O)N2CCCC(C(=O)N3CCN(c4cc(C)ccc4C)CC3)C2)cc2sccc21 (stereo unspecified),27.4%
Cn1c2c(c(=O)n(C)c1=O)C(c1ccccc1C(F)(F)F)CC(=O)N2 (stereo unspecified),10.9%
O=C(/C=C/c1ccco1)Nc1ccc(F)cc1,-51.2%
COc1ccc2c(c1)c1c(c(=O)n(Cc3ccccc3)c(=O)n1Cc1ccccc1Cl)n2C,-2.2%
COc1ccc(NC(=O)CSc2ccc3nc(-c4ccccc4)cn3n2)cc1OC,-10.8%
N#Cc1ccccc1Cn1c(SCC(=O)NCc2ccccc2)nc2ccccc21,-6.5%
CN1C(=O)c2ccccc2Sc2ccc(NC(=O)Nc3ccccc3F)cc21,?
CC1=C(c2ccc(C)c(C)c2)S(=O)(=O)N=C1N1CCC(C(=O)NC(C)c2ccccc2)CC1 (stereo unspecified),6.3%
COc1ccc(-c2cc3nc(C4CCN(C(=O)OC(C)(C)C)CC4)c(C(=O)Nc4cc(C)cc(C)c4)cn3n2)cc1,-3.2%
CCOCCCNC(=O)c1cc2c(=O)n(C)c3ccccc3c2n1C,10.7%
O=C(CSc1nc2ccccc2nc1Cc1ccccc1)Nc1ccccc1C(F)(F)F,0.0%
COCCOC(=O)c1c(C)oc2c1cc(NS(=O)(=O)c1ccc(Cl)c(C)c1)c1ccccc12,26.1%
CCOc1ccc(S(=O)(=O)NCCc2csc(-c3ccc(Cl)cc3)n2)cc1,17.4%
Cc1ccc(CNC(=O)c2c(O)nc3c(C)cccn3c2=O)cc1,-1.4%
COc1ccccc1NC(=O)c1nnn(-c2ccc(F)cc2)c1C,-24.2%
Cc1cc(C)n(CCc2nc3c4ccccc4nc(SCc4ccc(F)cc4)n3n2)n1,0.7%
O=C(CSCn1nnc2c(=O)[nH]c(Cc3ccc(F)cc3)nc21)Nc1cccc(C(F)(F)F)c1,-7.0%
COc1ccccc1NC(=O)CSc1oc(-c2ccc(F)cc2)nc1S(=O)(=O)c1ccc(Br)cc1,-3.0%
CCc1ccc(CNC(=O)c2cc3ccccn3n2)cc1,-49.8%
COc1ccc(CCNC(=O)C2CCN(c3ncnc4c3nc3n4CCCCC3)CC2)c(OC)c1,20.6%
COc1cc(C(=O)NCC(c2cccnc2)N2CCc3ccccc32)cc(OC)c1OC (stereo unspecified),25.3%
COc1ccc(S(=O)(=O)N(CC(=O)NCc2ccc(C)cc2)c2ccc(Cl)cc2)cc1,-9.1%
Cc1ccc(N2CC(NC(=O)c3ccco3)CC2=O)cc1C (stereo unspecified),-5.1%
COc1cccc(C(=O)Nc2cccc(-c3cn4ccsc4n3)c2)c1OC,19.9%
CCN(CC)c1ccc(C(=O)NCc2nc3cccnc3n2Cc2ccc(C)cc2)cc1,-5.2%
CC(C)CC(=O)Nc1ccc(C(=O)OCc2cc(=O)n3nc(C(C)C)sc3n2)cc1,1.3%
Cc1cccc(Oc2nc3ccccn3c(=O)c2/C=C(\C#N)c2nc3ccccc3s2)c1C,-3.8%
CCCCOc1ccc(C(=O)NCCc2sc3nc(-c4ccc(OC)cc4)nn3c2C)cc1,-15.4%
CCN(CC)Cc1c(NC(=O)c2ccc(OC)cc2)sc2c1CCCC2,-11.9%
COc1ccc(-c2nc3ccccc3o2)cc1NC(=O)c1ccc(-c2cccc(Cl)c2C)o1,-2.3%
Cc1cc(O)c(C(c2ccc(F)cc2)N2CCN(c3ccccc3)CC2)c(=O)n1Cc1ccco1 (stereo unspecified),0.8%
N#Cc1c(C(F)(F)F)cc(-c2cccs2)nc1SCc1ccc(F)cc1,-2.0%
CCCCc1nn2c(=O)cc(COC(=O)c3ccc(NC(=O)c4cccc(OC)c4)cc3)nc2s1,-1.6%
CCCCOc1ccc(NC(=O)CSc2ccc(C(=O)O)cn2)cc1,0.3%
CCN(CC)c1ccc(NC(=O)CN2CCN(S(=O)(=O)c3ccc(C(C)C)cc3)CC2)cc1,18.4%
CCc1ccc(-n2c(=O)c3c(C)c(C(=O)N(C)C)sc3n(Cc3cccc(C)c3)c2=O)cc1,3.5%
CC(C)Cn1c(=O)c2ccccc2n2c(CCC(=O)NCc3ccc(Cl)cc3)nnc12,4.0%
CCc1c(C)sc2c1CCN(Cc1ccc(C#N)cc1)C2c1ccccc1 (stereo unspecified),11.7%
CCC(Oc1ccccc1)C(=O)Nc1ccc(OCc2cc(=O)n3ccc(C)cc3n2)cc1 (stereo unspecified),-0.4%
CCCCC[C@]12Cc3cc(OC)c(OC)cc3C(O1)c1c(cc(C)n(-c3ccccc3)c1=O)O2,-1.4%[7.66 µM]
Cc1ccc(NC(=O)c2c(C)oc3ccc(O)c(CN4CCN(Cc5ccccc5)CC4)c23)cc1,14.1%
Fc1ccc(C(NCCc2ccc(Cl)cc2)c2nnc(-c3ccccc3)o2)c(Cl)c1 (stereo unspecified),27.8%
COc1ccc2c(c1)CCc1c(C(=O)Nc3ccc(F)c(Cl)c3)noc1-2,-13.8%
Cc1ccc(-n2nc3c(N4CCC(C(=O)N5CCCCC5)CC4)nnc(C)c3c2C)cc1,5.4%
COc1ccc(-n2nc(C(=O)N3CCN(c4ccccc4OC)CC3)c3c4ccccc4n(C)c3c2=O)cc1,-1.6%
CCc1ccc(NC(=O)c2ccc(F)c(S(=O)(=O)NC3CCCCCC3)c2)cc1,24.0%

# Exported as labelled records: part of the list above
> COc1ccc2c(c1)CCc1c(C(=O)Nc3ccc(F)c(Cl)c3)noc1-2
  miR-21 reporter = -13.8%

> Cc1ccc(-n2nc3c(N4CCC(C(=O)N5CCCCC5)CC4)nnc(C)c3c2C)cc1
  miR-21 reporter = 5.4%

> COc1ccc(-n2nc(C(=O)N3CCN(c4ccccc4OC)CC3)c3c4ccccc4n(C)c3c2=O)cc1
  miR-21 reporter = -1.6%

> CCc1ccc(NC(=O)c2ccc(F)c(S(=O)(=O)NC3CCCCCC3)c2)cc1
  miR-21 reporter = 24.0%

# The listing continues.
SMILES,miR-21 reporter
Cc1cc(C)cc(NC(=O)N2CCN(c3cc(-c4noc(C)n4)ccc3C)CC2)c1,11.6%
Cc1nn2c3c(cnc2c1-c1ccc(F)cc1)C(=O)CC(c1ccccc1)C3 (stereo unspecified),-1.6%
COc1cc(CN(C(=O)c2cccc(C)c2)c2ccccn2)cc(OC)c1OC,5.8%
Cc1ccc(CNC(=O)CSc2nc(=O)[nH]c3c2CCCC3)cc1,0.2%
CNC(=O)c1c(NC(=O)c2ccc(S(=O)(=O)N3CCCC(C)C3)cc2)sc2c1CCC2 (stereo unspecified),1.1%
CCC(=O)N1CCc2cc(Br)cc(S(=O)(=O)N3CCCC(C(=O)Nc4cccc(F)c4)C3)c21 (stereo unspecified),17.5%
Cc1cccc(-n2c(SCC(=O)Nc3ccc(C)c(C)c3)nc3n[nH]c(C)c3c2=N)c1,7.7%
COC(=O)c1ccc(Cn2c(SCC(=O)Nc3ccc(F)cc3)nc3ccccc32)cc1,-1.9%
CCCN(C(=O)c1cc2c(s1)-c1ccccc1OC2)c1ccc(C(C)C)cc1,3.6%
COc1cccc(C(=O)Nc2c3c(nn2-c2ccc(Cl)cc2)CS(=O)(=O)C3)c1,-1.3%
CCOc1cc2[nH]c(=O)n(Cc3ccc(C(=O)N4CCN(c5ccccc5)CC4)cc3)c(=O)c2cc1OCC,1.2%
Cc1cccc(N2CCN(c3ccc(C(=O)O)cc3NC(=O)c3ccccc3F)CC2C)c1 (stereo unspecified),-1.6%
CCN(C(=O)Cn1nc2c3cc(F)ccc3n(Cc3cccc(C)c3)cc-2c1=O)c1cccc(C)c1,2.2%
CCCCN(CC)CCCNC(=O)C1CCN(c2nc3ccc(CC)cc3s2)CC1,52.2%
O=C(CCC1N=C2c3ccccc3N=C(SCc3ccccc3Cl)N2C1=O)NCCc1ccccc1 (stereo unspecified),0.7%
Cc1c(Cl)cccc1-n1ncc(C(=O)Nc2ccc(F)cc2F)c1C1CCN(C(=O)OC(C)(C)C)CC1,?
COc1ccc(NC(=O)CSc2ccc(-c3cccs3)nn2)cc1,-29.2%
COc1cccc(CNC(=O)c2c(C)oc3ncnc(N4CCOCC4)c23)c1,-0.6%
CSc1ccc(-c2nc3c(C)cccn3c2Nc2ccc3c(c2)OCCO3)cc1,5.6%
COc1ccc(NC(=O)Cc2c(C(=O)O)[nH]c3ccccc23)cc1OC,-0.5%
COc1ccc(Br)cc1CNC(=O)c1cc(=O)[nH]c2ccc(S(=O)(=O)N3CCCCC3)cc12,-0.8%
CCOC(=O)c1sc2ccccc2c1S(=O)(=O)N1CCN(c2ccccc2)CC1,-7.1%
COc1ccc(S(=O)(=O)N2Cc3ccccc3CC2C(=O)Nc2cccc(C)c2)cc1OC (stereo unspecified),4.7%
COc1ccc(CCNS(=O)(=O)c2ccc(F)c(C(=O)Nc3ccc(Cl)cc3)c2)cc1OC,?
CN(C)c1ccc(C(CNS(=O)(=O)c2ccc(Br)cc2)N2CCOCC2)cc1 (stereo unspecified),-0.2%
COc1cc(NC(=O)CN2CCN(c3ccc(F)cc3)CC2)cc(OC)c1,-1.6%
CCn1cc(/C=C(\NC(=O)c2ccc(C)cc2)C(=O)NCCCn2ccnc2)c2ccccc21,-1.4%
CCc1nc2sc3c(N4CCC(C)CC4)ncnc3c2c2c1CCCC2,-0.9%
COc1ccc(C)cc1Nc1ncnc2c1c(-c1ccccc1)cn2-c1ccc(C)cc1,-3.0%
O=C(Cn1nc(-c2ccc(Cl)cc2)c2ccccc2c1=O)Nc1cccc(C(F)(F)F)c1,27.1%
Cn1c(=O)c(=O)n(C)c2cc(S(=O)(=O)N3CCCC3C(=O)Nc3cccc(F)c3)ccc21 (stereo unspecified),-5.4%
Cc1ccc2c(=O)c(C(=O)c3cccc(Cl)c3)cn(CC(=O)NCc3ccc(F)cc3)c2n1,-2.1%
O=C(Cn1c(=O)c2cccn2c2ccc(F)cc21)NCc1cccc(Cl)c1,26.3%
Cc1ccc2c(=O)cc(C(=O)Nc3sc4c(c3C(=O)NCc3ccco3)CCC4)oc2c1,-1.9%
CC(=O)Nc1cc(C(=O)NCc2ccc(F)cc2)ccc1S(=O)(=O)c1ccc(C)cc1,1.1%
O=C1C(=O)N(C2CCN(S(=O)(=O)c3ccccc3)CC2)CCN1Cc1ccccc1,4.0%
COC(=O)c1ccccc1NC(=O)Cn1cnc2sc(C)c(S(=O)(=O)N3CCC(C)CC3)c2c1=O,7.2%
COC(=O)c1ccc(NC(=O)CN2C(=O)CCc3cc(S(=O)(=O)N4CCCCC4)ccc32)cc1,7.7%
O=C(Nc1nnc(S(=O)(=O)N2CCCc3ccccc32)s1)c1ccccc1Br,0.2%
Cc1cc(C)cc(-n2ccn(Cc3ccc(F)cc3)c(=O)c2=O)c1,?
Cc1cc(C)cc(OCc2cc(=O)n3c(-c4ccccc4)csc3n2)c1,-13.0%
CC1=C(C(N)=O)C(c2ccc(F)cc2)n2nc(-c3ccc(N(C)C)cc3)nc2N1 (stereo unspecified),4.1%
O=C(Nc1ccc(Br)cc1)c1cc(S(=O)(=O)N2CCc3ccccc32)ccc1F,19.2%
CC(=O)N1CCOc2cc(S(=O)(=O)Nc3cccc(C(F)(F)F)c3)c(Cl)cc21,-5.5%
CC(C)CCNC(=O)c1ccc2nc(CCc3ccccc3)oc2c1,-22.2%
CCOC(=O)c1ccc(NC(=O)CSc2ccc3ccccc3n2)cc1,-3.6%
CCC(C)NC(=O)c1sc2nc(C)c(C(=O)Nc3ccc(C)cc3C)c(-c3ccc(NC(C)=O)cc3)c2c1N (stereo unspecified),15.6%
CCC(C)NC(=O)CSc1nc2cc3c(cc2c(=O)n1CCCC(=O)NCc1ccc2c(c1)OCO2)OCO3 (stereo unspecified),-2.7%
COc1ccc(N2CCN(CCCNC(=O)c3ccc4nc(Cc5ccccc5)oc4c3)CC2)cc1,?
CCn1c(SCC(=O)Nc2cc(C)ccc2F)nnc1-c1ccccc1O,-12.8%
COc1ccc(OC)c(CCNc2ncnc3onc(-c4ccc(Cl)cc4)c23)c1,22.0%

# Screens as filed in PubChem.
